Sfp inh: Sfp phosphopantetheinyl transferase inhibition; Biochemical Sfp PPTase activity, qHTS; Q9F4F7; 3.5% of 310,000 active; Potency, µM, for the others: max response, negative = inhibition, actives largely listed as inhibitors; active = well fitted inhibition curve with a large enough effect; inconclusive = small, poorly fitted or top-dose-only effect, or another doubt; inactive = no such curve, though single readings can be large or run the other way;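 also: the enzyme is Sfp with the accession as filed and its product quenches rhodamine fluorescence; potency is read from the fitted curve at half-maximal effect; 0% = enzyme reaction without inhibitor and -100% = no enzyme wells; top concentration of the series not given in the record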
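Buffer: 50 mM Hepes-Na pH 7.6, 10 mM MgCl2, 0.01% Nonidet P-40, 0.01% BSA. Enzyme 15 nM, pre-exposed to compound 15 min; substrates then added and fluorescence change tracked over 30 min.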
Menin-MLL FL inh: menin-MLL binding inhibition, fluorescein peptide; Fluorescence polarization, fluorescein-MLL peptide displacement from menin; FP activity change, % at 61.4 µM; 290,000 tested, under 10 active; AID 1766; inconclusive = falling polarisation curve, or a change in total fluorescence; inactive = total fluorescence flat and polarisation flat or rising; no compound was filed as active; the % refers to the polarisation; negative = inhibition;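 also: % of control where 0% means no effect; inhibitors lower the polarisation; unlabelled MLL peptide was the positive control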
TRPML1 inh: human mucolipin-1 channel inhibition; Q9GZU1; TRPML1-inducible cells, Ca2+ dye fluorescence, FDSS; stronger effect = lower value; inhibition of EC80 agonist-evoked calcium signal; activity change, negative = inhibition, % (concentration not given with the values); 0.02% of 390,000 active; in the data active means activity change below about -50%; inconclusive means about -30% to -50%; inactive means above about -30%;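 also: stimulus is agonist 54-4 at its EC80 concentration; % is scaled to controls: 0 for no effect and ±100 for the full control effect; compound concentration not given in the record; the text of the record puts the active cut at -80%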
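Tet-induced TRPML1-DL cells loaded with Ca8 no-wash calcium dye were read kinetically on FDSS. Compound addition was followed by EC80 agonist 54-4 (4 uM final); inhibition was read over 110 s.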
TRPML1 ag: agonists of human TRPML1 channel. Q9GZU1. TRPML1-expressing cells, Ca2+ dye fluorescence, FDSS; host cell line not named in the record; reference of the full effect not given here. activation, % (concentration not given with the values). 0.12% of 410,000 active; in the data active = activation above about 50%; inconclusive = about 30% to 50%; inactive = below about 30%; also: 0% is about no effect; the text of the record puts the active cut at 80%
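Kinetic FDSS Ca2+ read in Tet-induced TRPML1-DL cells (ABD Ca8 dye plus quencher, 45-90 min RT loading): baseline, then compound, then 110 s agonist window; EC80 agonist 54-4 at 4uM final added afterwards for a 110 s antagonist window.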
ClpP mod: qHTS Assay for Activators of ClpP; purified B. subtilis ClpP, FRET peptide cleavage, 20 min; Potency, µM (titrated, usually from 57.5 µM), for inactives: top-dose activity change, negative = active; 1.9% of 340,000 active; active = well fitted falling curve with a large enough effect; inconclusive = small, poorly fitted or top-dose-only effect; inactive = no such curve, though single readings can be large or run the other way; also: potency is read from the fitted curve at half-maximal effect; the source files actives as falling curves though it sought activators and does not explain the sign; nearly all actives have a fitted effect of over 65% in size; many hits overshoot -100%
Target sequence (P80244 whole entry, looked up): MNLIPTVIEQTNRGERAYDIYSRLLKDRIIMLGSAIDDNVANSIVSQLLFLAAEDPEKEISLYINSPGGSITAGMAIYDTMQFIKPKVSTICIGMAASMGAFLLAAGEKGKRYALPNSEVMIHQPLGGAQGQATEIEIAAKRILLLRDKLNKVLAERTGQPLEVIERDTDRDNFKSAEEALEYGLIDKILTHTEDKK
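FRET quenching reversal measured ClpP activation: 10 microg/mL B. subtilis ClpP at pH 8 with the FRET-FV decapeptide, read at 430 nm after 320 nm excitation. The 20-min minus 0-min signal was scaled between DMSO/no-enzyme wells and ADEP (5.8 microM final).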
TRPV1 PAM: potentiators of human vanilloid receptor 1 (TRPV1); Q8NER1; TRPV1-expressing cells, Fluo-8 calcium influx, capsaicin EC20 potentiation; host cell line not named in the record; control for the full effect not named in the record; potentiation, % at 8.33 µM; 0.02% of 320,000 active; active means potentiation above 80%; inconclusive means 30% to 80%; inactive means below 30%; also: 0% is about no effect
Target sequence (Q8NER1 whole entry, looked up): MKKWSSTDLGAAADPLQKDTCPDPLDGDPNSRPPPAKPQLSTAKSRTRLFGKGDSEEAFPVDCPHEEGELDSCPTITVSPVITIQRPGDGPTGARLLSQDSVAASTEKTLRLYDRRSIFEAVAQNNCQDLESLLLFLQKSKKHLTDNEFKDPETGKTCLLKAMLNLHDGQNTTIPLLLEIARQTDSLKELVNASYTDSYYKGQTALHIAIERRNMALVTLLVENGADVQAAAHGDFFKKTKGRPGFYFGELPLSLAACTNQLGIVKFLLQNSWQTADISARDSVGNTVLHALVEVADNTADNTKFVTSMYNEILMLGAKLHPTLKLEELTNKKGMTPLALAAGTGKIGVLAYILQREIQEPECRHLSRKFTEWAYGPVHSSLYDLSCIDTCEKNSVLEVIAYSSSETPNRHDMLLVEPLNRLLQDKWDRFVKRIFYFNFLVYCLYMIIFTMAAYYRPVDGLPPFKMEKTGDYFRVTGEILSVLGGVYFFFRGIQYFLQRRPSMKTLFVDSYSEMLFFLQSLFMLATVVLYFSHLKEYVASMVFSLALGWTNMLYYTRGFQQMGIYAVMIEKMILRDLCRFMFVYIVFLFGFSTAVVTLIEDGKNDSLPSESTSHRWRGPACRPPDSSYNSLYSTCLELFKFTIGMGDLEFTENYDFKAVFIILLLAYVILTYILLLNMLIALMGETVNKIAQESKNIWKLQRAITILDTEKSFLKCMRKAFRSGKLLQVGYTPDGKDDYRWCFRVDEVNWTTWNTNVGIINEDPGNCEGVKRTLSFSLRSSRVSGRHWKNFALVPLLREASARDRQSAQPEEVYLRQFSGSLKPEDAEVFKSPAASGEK
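TRPV1-expressing cells were cultured overnight at 35.5C and loaded with Fluo-8 calcium dye for 40 to 90 min at room temperature. After a 10 s baseline, compound was added and calcium influx was read kinetically for 3 min (ex 480/em 520 nm).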
PINK1 expr mod: modulators of PINK1 expression. PINK1 immunofluorescence, high-content cytometry, 24 h. Potency, µM (highest dose often 76.6 µM), for inactives: at the top dose activation (PINK1 increase), actives largely listed as activators. 0.2% of 410,000 active; active = well fitted activation curve with a large enough effect; inconclusive = small, poorly fitted or top-dose-only effect; inactive = flat fitted curve, though single readings scatter; cell line not stated here;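 also: potency is read from the fitted curve at half-maximal effect; % of control where 0% means no effect; nearly all actives have a fitted effect of over 65% in size; a mitochondrial uncoupler was the plate control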
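A stable cell line was treated with compounds at 5 concentrations for 24 hours, with CCCP as control. PINK1 levels and mitochondrial localization were measured by immunofluorescence with mitochondrial, cell and nuclear markers after fixation, read by laser-scanning cytometry.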
* marks the source's active call; other numbers are inactive results; ? = inconclusive; . = not tested or not shown; & = joins results of further samples; [ ] = another dose, or the depositor's remark.

SMILES	Sfp inh	Menin-MLL FL inh	TRPML1 inh	TRPML1 ag	ClpP mod	TRPV1 PAM	PINK1 expr mod
Cc1nnc(NC(=O)c2cc(S(=O)(=O)N3CCCCC3)ccc2Cl)s1	6.4%	.	0.8	0.1	-1.4%	?	-0.6%
CCCCN(c1ccccc1)S(=O)(=O)c1ccc2c(c1)CC(C)N2C(=O)C1CC1 (centres undefined)	.	.	9.6	1.5	1.4%	.	4.5%
CCCCC(=O)NC(=S)Nc1ccc(S(=O)(=O)N2CCCC2)cc1	-4.2%	4.2	-6.2	1.1	-0.7%	-6.4	-0.3%
N=c1c(C(=O)NCCN2CCOCC2)cc2c(=O)n3ccccc3nc2n1Cc1ccc(F)cc1	16.0%	.	-4.4	1.6	4.0%	-7.8	-0.2%
CN(CCCn1cnc2c(OCc3ccccc3)ncnc21)CCc1ccccn1	.	.	19.2	-0.1	-1.1%	.	0.8%
Cc1ccccc1Nc1nc(-c2sc(NC(=O)c3ccccc3)nc2C)cs1	25.1µM*	7.2	.	.	.	-0.7	.
O=C(c1cccc2ccccc12)N1CCN(c2ccc([N+](=O)[O-])c(NCc3ccco3)c2)CC1	2.2%	-1.8	-9.4	0.7	0.6%	23.1	0.9%
CSCCC(NC(=O)COc1ccccc1)C(=O)O (centres undefined)	17.2%	0.2	18.8	-0.4	.	-17.0	-0.7%
COc1ccc(CCNC(=O)COC(=O)c2cccs2)cc1	.	.	20.2	1.5	.	9.9	-1.5%
CN(C)c1cccc2c1c(NC(=O)c1ccc(F)cc1)nn2C	-10.7%	5.6	2.8	1.8	1.3%	-6.9	-0.1%
CCS(=O)(=O)N1CCc2cc(C(=O)Nc3cc(OC)c(Cl)cc3OC)ccc21	.	.	-7.5	1.1	?	.	3.1%
COc1ccc(C(C)NC(=O)C2C(=O)NC3(C)CC2c2ccccc2O3)cc1 (centres undefined)	7.7%	3.9	2.2	1.2	-0.9%	12.7	-0.2%
CCCOc1ccc(-c2nonc2NC(=O)COc2ccc(C)cc2)cc1OCCC	.	.	-8.5	-0.1	1.9%	.	10.6%
O=C(COc1ccc(S(=O)(=O)N2CCOCC2)cc1)Nc1ccccc1F	.	.	-11.2	-0.9	.	-12.1	5.4%
Nc1ccccc1C(=O)N1O[C@@H]2C=C[C@H]1CC2	.	.	-3.3	-0.8	0.1%	.	0.0%
CC1CC(C)CN(S(=O)(=O)c2ccc(NC(=O)C3COc4ccccc4O3)cc2)C1 (centres undefined)	27.2%	3.8	37.9	2.5	1.0%	-8.2	3.0%
COc1ccc(C)cc1NC(=O)NNS(=O)(=O)c1ccc(NC(C)=O)cc1	3.6%	1.3	-16.1	0.1	-0.9%	0.1	2.2%
COc1ccc(C2C3=C(OC(C)=O)c4ccccc4C3=Nc3c2c(=O)n(C)c(=O)n3C)cc1 (centres undefined)	-14.7%&19.2%	-2.0&-0.1	-6.5	0.6	-1.1%	-1.1&-5.5	27.9%[38.3 µM]
Cc1ccc(S(=O)(=O)c2cn(C)c3cc(N4CCN(C)CC4)c(F)cc3c2=O)c(C)c1	3.9%	.	1.6	-0.1	4.6%	9.9	4.0%
Cc1cccc(NC(=O)CCNS(=O)(=O)c2ccc3c(c2)CCN3C(=O)C2CC2)c1	.	.	1.6	0.7	2.6%	.	-5.7%
CCC(CCC(=O)NNC(=O)Cc1ccc([N+](=O)[O-])cc1)C(=O)O (centres undefined)	14.6%	-0.8	4.8	0.7	-1.1%	-3.8	1.2%
COc1ccc(CCN2CC(C(=O)OC(C)C(=O)Nc3ccc(NC(C)=O)cc3)CC2=O)cc1OC (centres undefined)	.	.	-14.2	-0.1	-3.7%	.	0.1%
CCCCOc1ccc(CNC(=O)c2cnc3sc(N4CCCC4)nn3c2=O)cc1	.	.	-9.4	1.8	-13.0%	.	1.3%
CCCC(C)C(=O)OCC(=O)Nc1c(Br)cc(C)cc1Br (centres undefined)	10.0%	1.2	23.8	2.4	-1.3%	7.6	-2.4%
COC(=O)[C@]12CCCCC=C1N(Cc1ccco1)C(=O)[C@H](CC(=O)NCc1ccccc1)C2	.	.	.	-0.9	-0.9%	.	0.6%
COc1ccc(-c2[nH]ncc2CNCCCSC)cc1F	15.0%	0.2	-4.4	-0.2	0.4%	-3.1	0.6%
CN(C)/C=C/C(=O)c1nn(-c2ccc(F)cc2)ccc1=O	17.8%	6.7	3.3	-0.1	0.0%	.	0.4%
O=[N+]([O-])c1ccc(N2CCN(S(=O)(=O)c3ccccc3)CC2)cc1NCc1cccnc1	0.4%	-3.4	22.4	1.2	0.5%	-28.2	-0.7%
CSC(=NC#N)N1CCN(c2ccccc2)CC1	2.2%	-0.6	0.8	-0.6	-0.4%	25.9	5.8%[38.3 µM]
Cc1cc(OCCN2CCCCCC2)ccc1[N+](=O)[O-]	12.4%	-1.8	13.5	2.2	-1.0%	10.0	-2.4%
CCn1cc2nc(SCc3ccccc3F)n(Cc3ccc(C)cc3)c(=O)c2n1	.	.	15.4	-0.6	-2.2%	.	6.9%
COc1ccc(-n2c(SCC3CNC(=O)O3)nnc2-c2ccc(Cl)cc2)cc1 (centres undefined)	15.8%	7.4	2.9	0.1	1.6%	-1.8	-1.4%
CC(C)C[C@@H](CN)NC(=O)c1nc[nH]c1C(=O)N[C@@H](C)C(=O)CNC[C@H](C)NC(=O)c1nc[nH]c1C(=O)N[C@@H](CC(=O)O)C(=O)O	.	.	0.0	-0.5	3.5%	.	0.7%
O=C(c1cccc(C(F)(F)F)c1)c1c[nH]c(C(=O)NCC2CCCO2)c1 (centres undefined)	8.5%	-0.6	-14.5	2.1	.	-32.0	5.4%
CCOC(=O)Cc1csc(NC(=O)CCC(=O)O)n1	17.6%	1.9	-2.2	0.4	.	?	0.7%
COC(=O)c1cc(C#N)c(Oc2ccc(F)cc2)nc1C	0.9%	0.7	21.0	2.9	-2.8%	1.6	-1.3%
COCc1cc(C)nc(N2CCN(c3ccccc3)CC2)c1C#N	-0.6%	2.4	-3.7	0.5	-9.6%	-10.7	-7.0%[38.3 µM]
O=C(CNC(=O)C1COc2ccccc2O1)N/N=C/c1cc(Br)c(O)c(Br)c1 (centres undefined)	1.2%	-2.3	-6.2	-0.5	.	-1.0	2.0%
O=C(O)CCN1C(=O)CC2(CCCCC2)C1=O	4.5%	-0.3	-1.1	-0.6	1.2%	-28.4	-3.3%
O=C(NNS(=O)(=O)c1ccc(Br)cc1)NC1CCCCC1	8.3%	2.0	-22.0	1.5	-0.8%	-10.3	0.3%
CC1(C)Cc2c(sc3nc(NCCN4CCOCC4)n4ncnc4c23)CO1	4.3%	3.2	6.2	-0.5	-11.5%	-23.1	-0.1%
O=C(CN1CCC(Cc2ccccc2)CC1)Nc1ccc2c(c1)OCCO2	-18.6%	4.8	25.3	0.9	-1.7%	-13.6	-1.6%
O=C(CCC(=O)N1CCOc2ccccc21)N1CCN(c2ccccc2)CC1	16.8%	-0.8	-4.9	0.0	0.2%	7.6	3.1%
Cc1cc(C)n(CCOc2nonc2N)n1	18.3%	0.0	-0.3	-0.4	0.4%	-15.2	1.9%[38.3 µM]
CC(C)NCc1nnc(-c2ccc(Cl)cc2)o1	14.3%	2.8	-4.2	0.6	-1.7%	-9.4	2.6%
COCC(=O)Nc1nc(-c2ccc(-c3ccccc3)cc2)cs1	15.6%	-2.0	33.7	0.1	-1.5%	?	1.2%
Cn1c(N)c(C(=O)COC(=O)c2cccc(S(=O)(=O)N3CCOCC3)c2)c(=O)n(C)c1=O	.	.	8.3	0.1	-3.5%	.	-0.5%
N#Cc1c(NC(=O)CCC(=O)O)sc2c1CCCCC2	20µM*	?	15.4	-0.3	.	2.7	-0.5%
O=C(Nc1ccc(Cl)cc1)Nn1cnc2ccccc2c1=O	7.5%	1.3	23.1	1.3	.	20.1	0.5%
CC(C)C[C@H](NC(=O)c1nc[nH]c1C(=O)N1CCC(C)CC1)C(=O)OCc1ccccc1	11.3%	-0.1	-1.3	0.0	1.5%	?	10.8%
CC(C)C(=O)Nc1cccnc1	16.4%	-9.8	2.8	0.2	2.4%	15.5	-0.1%
Cc1ccc2nc(N3CCN(Cc4nnnn4Cc4ccccc4)CC3)c(C#N)cc2c1	-16.7%	2.7	-1.1	-0.7	-11.5%	18.2	-2.2%
Cc1nnc(SCC(=O)Nc2nccs2)[nH]c1=O	-10.7%	3.8	-7.3	-0.9	0.8%	8.5	-1.1%
CCCCN(C)CCNC(=O)c1nn(-c2ccc(OC)c(Cl)c2)c(=O)c2c1c1ccccc1n2C	.	.	23.4	-0.6	-7.3%	.	1.9%
COc1ccc(C(=O)N2CCN(Cc3cn[nH]c3-c3ccc(OC)cc3F)CC2)cc1	5.5%	1.0	-1.4	0.7	-1.4%	-2.5	0.4%
C=CCOC(=O)C1=C[C@@H](c2ccc(Br)cc2)[C@H](CCCO)[C@@H](OCC)O1	-18.0%	0.2	-4.1	0.8	-2.5%	-25.3	1.2%
COc1ccc2[nH]cc(CCNC(=O)C3CCCCC3)c2c1	-2.7%	-2.0	6.1	-0.1	.	9.2	2.5%
Cc1ccc(-c2nn(CC(=O)Nc3cccnc3)c(=O)c3ccccc23)cc1	-13.2%	0.4	9.0	1.4	-2.0%	-1.2	0.5%
COC(=O)c1ccc(Cn2c(C)c(C(=O)NCc3cccc(C(F)(F)F)c3)sc2=O)o1	.	.	.	0.0	0.0%	.	-1.1%
O=C(NCc1ccccc1)c1cccc(NC(=O)C2CCC2)c1	.	.	-4.3	2.0	0.8%	.	0.5%

Next records:
SMILES	Sfp inh	Menin-MLL FL inh	TRPML1 inh	TRPML1 ag	ClpP mod	TRPV1 PAM	PINK1 expr mod
O=C(O)C1CC(=O)N(C2CCCCC2)C1c1ccccc1 (centres undefined)	15.0%	-1.5	1.1	-0.2	-0.1%	9.0	2.1%
COCCNC(=O)c1ccc2c(=O)n(CCOC)c(=O)[nH]c2c1	12.5%	1.3	-2.8	0.6	25.1µM*	-2.0	-4.2%
COc1ccc(C(=O)NCc2c(C)oc(C)c2C(=O)O)cc1	5.8%	-0.8	14.2	0.6	15.8µM*	9.4	-0.7%
CCN(Cc1ccccc1)S(=O)(=O)c1cc2[nH]c(=O)c(=O)[nH]c2cc1C	6.3%	-0.1	-7.5	0.3	4.2%	-24.6	0.4%
Cn1c(=O)n(C)c2cc(S(=O)(=O)O)ccc21	13.1%	0.0	10.8	-0.5	-0.2%	-38.5	0.5%

Source: PubChem

Hits appear at their usual frequency. About 4.4% of those tested had a hit in this group.
